# Sfp inh: Sfp phosphopantetheinyl transferase inhibition. Q9F4F7. Biochemical Sfp PPTase activity, qHTS. Potency, µM, for the others: max response, negative = inhibition, most hits filed as inhibitors. actives 3.5% (n = 310,000); active = well fitted inhibition curve with a large enough effect; inconclusive = small, poorly fitted or top-dose-only effect, or another doubt; inactive = no such curve, though single readings can be large or run the other way;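 also: the enzyme is Sfp with the accession as filed and its product quenches rhodamine fluorescence; potency is read from the fitted curve at half-maximal effect; 0% = enzyme reaction without inhibitor and -100% = no enzyme wells; top concentration of the series not given in the record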
#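 Fluorescence-quenching assay with 15 nM Sfp, 5 uM rhodamine-CoA and 12.5 uM BHQ-2-labelled ybbR peptide in pH 7.6 Hepes/MgCl2 buffer. Enzyme was pre-incubated with compound for 15 min at room temperature. Rate was taken from the 30-min fluorescence change (525/598 nm).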
# CtBP-E1A inh: blocks the CtBP interaction with E1A; AlphaScreen GST-E1A/His-CtBP binding, 1536-well; hits give low values; control for the full effect not named in the record; activity change, % (test concentration not listed); actives 0.49% (n = 340,000); AID 651724; in the data active means activity change below about -65%; inconclusive means about -30% to -65%; inactive means above about -30%; also: % is scaled to controls: 0 for no effect and ±100 for the full control effect; compound concentration not given in the record
#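 Homogeneous bead-based format: GST-tagged E1A captured on glutathione donor beads, His-tagged CtBP on nickel acceptor beads; compounds precede bead addition by 2 h at 37 °C.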
# Menin-MLL FL inh: menin-MLL binding inhibition, fluorescein peptide; Fluorescence polarization, fluorescein-MLL peptide displacement from menin; FP activity change, % at 61.4 µM; 290,000 tested, under 10 active; AID 1766; inconclusive = falling polarisation curve, or a change in total fluorescence; inactive = total fluorescence flat and polarisation flat or rising; no compound was filed as active; the % refers to the polarisation; negative = inhibition;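 also: % of control where 0% means no effect; inhibitors lower the polarisation; unlabelled MLL peptide was the positive control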
# gsp agonist: activates gsp, the McCune-Albright syndrome mutation | gsp mutant cells, cAMP HTRF, 30 min; control for the full effect not named in the record | Potency, µM (top dose mostly 76.9 µM), without a hit: at the top dose activation (cAMP increase), hits mostly activators | actives 0.13% (n = 340,000); active = well fitted activation curve with a large enough effect; inconclusive = small, poorly fitted or top-dose-only effect, or another doubt; inactive = no such curve, though single readings can be large or run the other way; cell line not stated here;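 also: phosphodiesterase inhibitor Ro 20-1724 added with compounds to block cAMP breakdown; potency is read from the fitted curve at half-maximal effect; nearly all actives have a fitted effect of over 60% in size; about a fifth of the inactives were tested at one dose only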
#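 Cells stably selected in G418 were plated at 2000/well, grown 16-24 hr, then given compounds in DMSO with the PDE inhibitor […] (300 uM solution added) for 30 min at 37C; cAMP was read by HTRF.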
# gsp antag: antagonists of gsp mutant (McCune-Albright syndrome); gsp-mutant cells, cAMP HTRF, 30 min; control for the full effect not named in the record; Potency, µM (top dose mostly 76.9 µM), inactives show at the highest dose activity change, negative = inhibition, usual class: inhibitors; actives 0.4% (n = 340,000); active = falling curve of any shape with a large fitted effect; inconclusive = falling curve, mostly with a smaller effect; inactive = flat or rising curve; cell line not stated here;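 also: intracellular cAMP measured with PDE inhibitor Ro 20-1724 present during compound exposure; potency is read from the fitted curve at half-maximal effect; % is scaled to controls: 0 for no effect and ±100 for the full control effect; nearly all actives have a fitted effect of over 65% in size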
#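 Measurement of cellular cAMP by homogeneous time-resolved fluorescence following a 30 min compound exposure at 37C. The PDE inhibitor […] was present throughout; the assay buffer was DPBS with 0.05% BSA and 0.005% Tween 20.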
# TRPV1 potentiator: potentiators of human vanilloid receptor 1 (TRPV1); Q8NER1; TRPV1-expressing cells, Fluo-8 calcium influx, capsaicin EC20 potentiation; host cell line not named in the record; control for the full effect not named in the record; potentiation, % at 8.33 µM; actives 0.02% (n = 320,000); AID 540277; active means potentiation above 80%; inconclusive means 30% to 80%; inactive means below 30%; also: 0% is about no effect
# Target sequence (Q8NER1 whole entry, looked up): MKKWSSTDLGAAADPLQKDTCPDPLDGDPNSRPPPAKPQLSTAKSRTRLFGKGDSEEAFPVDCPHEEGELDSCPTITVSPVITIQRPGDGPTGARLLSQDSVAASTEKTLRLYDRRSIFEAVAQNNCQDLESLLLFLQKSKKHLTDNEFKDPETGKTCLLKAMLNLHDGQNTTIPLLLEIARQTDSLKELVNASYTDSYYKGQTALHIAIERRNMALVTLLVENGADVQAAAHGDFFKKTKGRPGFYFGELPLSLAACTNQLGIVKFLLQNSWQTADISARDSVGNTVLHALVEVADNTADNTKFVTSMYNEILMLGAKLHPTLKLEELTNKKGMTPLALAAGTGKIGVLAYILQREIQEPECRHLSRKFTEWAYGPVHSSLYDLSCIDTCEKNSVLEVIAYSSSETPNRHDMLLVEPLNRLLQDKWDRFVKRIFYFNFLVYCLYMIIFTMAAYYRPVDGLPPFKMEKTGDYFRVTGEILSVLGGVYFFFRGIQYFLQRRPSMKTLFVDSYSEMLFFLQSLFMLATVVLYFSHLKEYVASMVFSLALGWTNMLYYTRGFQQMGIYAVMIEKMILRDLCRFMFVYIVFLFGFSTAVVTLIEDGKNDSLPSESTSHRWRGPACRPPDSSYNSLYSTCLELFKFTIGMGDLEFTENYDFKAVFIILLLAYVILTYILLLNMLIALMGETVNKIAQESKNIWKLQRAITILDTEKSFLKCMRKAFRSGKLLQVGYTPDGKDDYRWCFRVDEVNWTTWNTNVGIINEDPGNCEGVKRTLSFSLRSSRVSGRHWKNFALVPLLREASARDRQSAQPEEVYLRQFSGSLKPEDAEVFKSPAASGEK
#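 Cells expressing TRPV1 were dye-loaded with Fluo-8 and read kinetically: 10 s baseline, 3 min after compound (agonist portion), then 2 min after EC20 capsaicin (allosteric enhancer portion). Calcium-bound dye fluorescence at 480/520 nm.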
# ClpP mod: qHTS Assay for Activators of ClpP; purified B. subtilis ClpP, FRET peptide cleavage, 20 min; actives 1.9% (n = 340,000); Potency, µM (highest dose often 57.5 µM), for the others: at the top dose activity change, negative = active; ATP-dependent Clp protease proteolytic subunit (Bacillus subtilis (strain 168)), P80244; active = well fitted falling curve with a large enough effect; inconclusive = small, poorly fitted or top-dose-only effect; inactive = no such curve, though single readings can be large or run the other way; also: potency is read from the fitted curve at half-maximal effect; the source files actives as falling curves though it sought activators and does not explain the sign; nearly all actives have a fitted effect of over 65% in size; many hits overshoot -100%
# Target sequence (P80244 whole entry, looked up): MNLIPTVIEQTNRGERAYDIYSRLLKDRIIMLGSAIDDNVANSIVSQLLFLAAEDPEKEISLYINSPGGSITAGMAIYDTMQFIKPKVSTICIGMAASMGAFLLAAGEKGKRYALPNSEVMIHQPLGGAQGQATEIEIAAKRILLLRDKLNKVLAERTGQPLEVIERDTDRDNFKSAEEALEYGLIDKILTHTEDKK
#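 Purified B. subtilis ClpP, 10 microg/mL final in Tris/HCl pH8 with KCl, BSA, glycerol and Tween-20, cleaved an Abz/nitrotyrosine-quenched decapeptide. Fluorescence (ex 320, em 430) was read at 0 and 20 min at room temperature. Delta was normalized to 5.8 microM ADEP and DMSO/no-enzyme controls.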
# An asterisk follows results filed as active; ? = inconclusive; . = not tested or not shown; [ ] = another dose, or the depositor's remark.
SMILES,Sfp inh,CtBP-E1A inh,Menin-MLL FL inh,gsp agonist,gsp antag,TRPV1 potentiator,ClpP mod
Cc1ccn2c(CNCC3OCCc4ccccc43)c(C(=O)N3CCCCCC3)nc2c1 (stereo not drawn),-4%,2,-8.7,-9%,-2%,-8,.
Cc1ccc(CNC(=O)[C@@H](NC(=O)Cc2ccccc2)C(C)C)cc1,20%,21,-3.6,-5%,6%,6,.
NC(=O)C1C(c2ccccc2)=C1c1ccccc1,15%,5,-0.7,-1%,6%,-1,1.7%
CCC(C(=O)NCCCN1CCOCC1)n1c2ccccc2c2nc(=O)cc(C)n21 (stereo not drawn),11%,2,.,10%,0%,0,2.9%
CCS(=O)(=O)N1Cc2ccccc2CC1C(=O)OCC(=O)Nc1ccc(C)cc1 (stereo not drawn),-4%,11,-1.0,3%,-4%,-4,-1.9%
CCOC(=O)N1CCN(C(=S)NC(=O)c2ccc(F)cc2)CC1,2%,3,-0.1,-14%,0%,4,.
Cc1nc2ncccn2c1-c1csc(Nc2cccc(C(=O)O)c2)n1,?,-29,1.4,?,-6%,3,.
COc1ccc(OC)c(S(=O)(=O)N2CCN(c3ccccn3)CC2)c1,-1%,15,0.7,0%,-4%,-4,-9.0%
CC1CCCN(C(=O)COC(=O)Cc2ccc(Cl)cc2)C1 (stereo not drawn),5%,-1,-1.0,?,11%,0,.
CC[C@H](C)Cc1cn([C@@H](CCCN=C(N)N)C(=O)NCCCCCCCCCCC(=O)N2CCNCC2)nn1,.,.,.,-9%,4%,-6,-3.8%
O=C(COC(=O)CNC(=O)c1ccc(Cl)cc1Cl)NC1CCCCCCC1,.,2,.,-4%[15.4 µM],8%,-23,.
CCS(=O)(=O)N1CCN(c2ccccc2)CC1,-5%,3,1.0,27%[15.4 µM],9%,?,.
O=C(N/N=C/c1cccs1)c1cc(C2CC2)nc2ccccc12,-5%,2,3.4,-8%[15.4 µM],-3%,11,-2.4%
Cc1cccc(NC(=O)c2cccc(S(=O)(=O)Nc3c(C)n(C)n(-c4ccccc4)c3=O)c2)c1,.,0,.,2%,-9%,.,-1.7%
CCOC(=O)/C=C/C(=O)Nc1ccc(S(=O)(=O)Nc2c(C)cc(C)cc2C)cc1,8%,5,5.0,-27%,-24%,3,-1.3%
CCN(C(=O)CSc1nc2ccccc2n1CC(C)C)c1c(N)n(Cc2ccccc2)c(=O)[nH]c1=O,.,.,.,-3%,-4%,.,-1.7%
Cc1[nH]c(-c2ccc(F)cc2)cc1C(=O)N1CCN(c2ccc(Cl)cc2)CC1,-24%,0,-0.3,17%,-5%,7,-17%
O=C(NCc1ccncc1)C1COc2ccccc2O1 (stereo not drawn),9%,-2,0.8,7%,9%,0,-0.3%
COc1ccc(CC(=O)NNC(=O)c2ccc(SCc3cc(F)ccc3F)c([N+](=O)[O-])c2)cc1,1%,10,3.8,6%,-1%,-9,1.8%
Cc1nn(C)c(NC(=O)c2ccc(Cl)cc2)c1Cl,4%,4,-2.0,-1%,-2%,-9,1.2%
CC(=O)Nc1ccc(S(=O)(=O)NC(=O)C23CC4CC(CC(C4)C2)C3)cc1,19%,7,-1.3,0%,-2%,9,-2.7%
CC(=O)c1cccc(NC(=O)Cc2cccs2)c1,1%,1,5.9,15%,-6%,-9,0.4%
CCn1c(C(O)c2ccc3c(c2)OCO3)nc2ccccc21 (stereo not drawn),7%,0,0.8,-7%,-14%,-10,-0.2%
CCCCNS(=O)(=O)CCNCc1ccco1,.,0,.,.,6%,.,2.0%
COc1ccc(C(=O)NC(=O)CSc2nc3nc(C)cc(C)n3n2)cc1,.,-2,.,30%,-3%,.,-1.1%

# Other results
SMILES,Sfp inh,CtBP-E1A inh,Menin-MLL FL inh,gsp agonist,gsp antag,TRPV1 potentiator,ClpP mod
O=C(O)c1cc(NN=Nc2ccc(Br)cc2)cc([N+](=O)[O-])c1,7%,-5,-1.8,-6%,?,.,1.5%
O=c1cc(-c2ccc(Br)cc2)[nH][nH]1,22%,23,-1.1,-1%[15.4 µM],3%,2,.
O=C(Nc1ccc(Br)cc1Cl)c1ccc2c(=O)n3c(nc2c1)CCC3,.,-1,.,-43%[inhibitor],-17%,-6,-0.6%
Clc1ccc(-c2cn3cc(Cl)ccc3n2)cc1,9%,.,5.2,4%,8%,0,?
COc1ccc(C(CNC(=O)c2cccnc2SC)N2CCOCC2)cc1 (stereo not drawn),9%,0,0.5,-30%,2%,-14,-0.2%
CCC(=O)c1cc2c(cc1NC(=O)C(C)C)OCCO2,20%,8,-0.9,?,3%[15.4 µM],-11,-5.9%
CC1=CCC(C(=O)N/N=C/c2cccs2)C(c2ccc(F)cc2)C1 (stereo not drawn),15%,1,1.6,-17%,-5%,-7,-2.5%
CCOc1ccc(NC2=NC(C)(C)N=C(N)N2)cc1,-15%,9,1.7,-3%,4%,?,-1.4%
COc1ccc(N2CCN(CCNS(=O)(=O)c3cccc4nsnc34)CC2)cc1,20%,-8,2.2,-54%[inhibitor],-10%,7,-0.5%
COc1ccc(NC(=O)CC(C)c2ccccc2)c([N+](=O)[O-])c1 (stereo not drawn),15%,-11,-0.7,-52%[inhibitor],13%,-22,1.9%
COc1cc(/C=C(/NC(=O)c2ccccc2Cl)C(=O)O)cc(OC)c1OC,23%,6,10,-12%,0%,?,-0.2%
C=CCn1c(SCC(=O)Nc2cc(OC)c(NC(=O)c3ccco3)cc2OC)nnc1-c1ccncc1,-6%,-11,1.1,-45%[inhibitor],-22%,27,0.1%
CN(C)CCN(CC1CCCN(Cc2ccccc2F)C1)C(=O)c1ccc(F)cc1 (stereo not drawn),1%,-1,-5.8,-30%[inhibitor],14%,-1,.
C=CCn1c(C)cc(C(=O)CSc2nnc3c(Cl)cc(Cl)cn23)c1C,13%,-5,3.1,0%,-7%,8,-1.4%
CS(=O)(=O)N1CCc2cc(S(=O)(=O)N3CCCCC3)ccc21,4%,3,0.9,3%,6%,6,.
COC(=O)[C@@]1(C)[C@H]2C(=O)N(C)C(=O)[C@H]2[C@H]2CN=C(SCc3ccccc3)N21,.,3,.,.,10%,.,-1.3%
Clc1ccccc1CNCC1CCCO1 (stereo not drawn),24%,-1,0.4,-2%[15.4 µM],3%,0,-0.9%
CC(C)c1ccc2[nH]c3nc(SCC(=O)N4CCOCC4)nnc3c2c1,5%,-10,-9.5,-13%,-7%,-14,.
Cc1ccc2[nH]c(=O)c(CN(Cc3ccco3)S(=O)(=O)c3c(C)ccc4nsnc34)cc2c1,?,8,7.6,-12%,6%,-6,-0.7%
Cc1ccc(/C=C/C(=O)c2ccc(N3CCOCC3)cc2)s1,?,-1,?,-29%[15.4 µM],?,-18,.
Cn1nc(C(=O)NNC(=O)C2CSC3(C)CCC(=O)N23)c2ccccc2c1=O (stereo not drawn),.,8,.,9%,11%,25,0.4%
Cc1ccccc1OCCCC(=O)Nc1ccc(S(=O)(=O)Nc2onc(C)c2C)cc1,4%,5,.,17%,-5%,5,.
O=C(CNC(=O)c1cccs1)N/N=C/c1ccc(O)cc1O,9%,?,-9.2,-17%[15.4 µM],8%,1,.
CNC(=S)N(CCCN(C)C)Cc1cc2cc3c(cc2[nH]c1=O)OCCO3,15%,5,-0.7,-26%,5%,-3,3.6%
Cc1ccnc2c1ccc1c(C)ccnc12,.,-92*,.,7%,14%,11,-2.2%

# 4 entries already listed, arranged by SMILES length, rising:
SMILES,Sfp inh,CtBP-E1A inh,Menin-MLL FL inh,gsp agonist,gsp antag,TRPV1 potentiator,ClpP mod
C=CCn1c(C)cc(C(=O)CSc2nnc3c(Cl)cc(Cl)cn23)c1C,13%,-5,3.1,0%,-7%,8,-1.4%
O=C(O)c1cc(NN=Nc2ccc(Br)cc2)cc([N+](=O)[O-])c1,7%,-5,-1.8,-6%,?,.,1.5%
Cc1ccccc1OCCCC(=O)Nc1ccc(S(=O)(=O)Nc2onc(C)c2C)cc1,4%,5,.,17%,-5%,5,.
COC(=O)[C@@]1(C)[C@H]2C(=O)N(C)C(=O)[C@H]2[C@H]2CN=C(SCc3ccccc3)N21,.,3,.,.,10%,.,-1.3%

# Continuation:
SMILES,Sfp inh,CtBP-E1A inh,Menin-MLL FL inh,gsp agonist,gsp antag,TRPV1 potentiator,ClpP mod
COc1cc(/C=N/NC(=O)c2ccncc2)ccc1OCC(=O)Nc1ccccc1,16%,-5,-2.2,-1%,-16%,-1,.
O=C(NCC(=O)N(Cc1cccs1)C(C(=O)NC1CCCC1)c1ccco1)c1cccs1 (stereo not drawn),8%,-3,2.2,1%,-1%,-21,1.1%
S=C(Nc1ccc(Br)cc1Cl)N1CCC2(CC1)OCCO2,2%,0,-1.0,5%[15.4 µM],-18%,-3,.
CCN(CC)S(=O)(=O)c1ccc(C(=O)NCc2nnc(SCC(=O)OC)n2C)cc1,13%,2,?,6%,1%,2,-0.9%
O=C(CSc1nc2scc(-c3ccccc3)c2c(=O)[nH]1)N1CCCCC1,-9%,0,16,?,?,-1,.
COc1ccc(OC)c(NC(=O)C(Sc2ccccc2)c2ccccc2)c1 (stereo not drawn),-8%,-3,-2.9,?,-1%,-6,-3.2%
COCCNC(=O)CN(C(=O)CCC(=O)Nc1cc(C)on1)c1ccccc1C,17%,-7,-1.4,16%,4%,-7,-2.0%
COc1ccc(CN(C(=O)c2cc3ccccc3oc2=O)C2CCCCC2)cc1OC,-6%,1,2.6,2%,?,-26,-0.6%
CCOC(=O)N1CCN(C(=O)CSc2nc(-c3cccc(C)c3)ns2)CC1,35µM*,2,0.7,0%,-10%,-3,0.6%
CN(C)S(=O)(=O)c1ccc(C(=O)Nc2ccccc2F)cc1,19%,7,-0.2,3%,9%,-9,0.0%
Clc1ncc(CSc2ccccc2)s1,17%,4,-1.9,22%[15.4 µM],2%,4,.
CCc1c(C)c2ccc(O)c(CN(C)C)c2oc1=O,10%,6,2.3,8%,2%,1,-34%
CN(Cc1ccccc1)S(=O)(=O)c1cc2c3c(c1)CCN3C(=O)CC2,.,1,.,11%[15.4 µM],3%,28,-1.4%
Clc1ccccc1/C=C/c1nc(-c2cccnc2)no1,-4%,-2,2.5,?,6%,-5,0.8%
CCCOc1ccc(NC(=O)C2CC(=O)N/C(=N/N=C(C)/C=C/c3ccc(N(C)C)cc3)S2)cc1 (stereo not drawn),6%,0,.,-16%,-18%,-12,1.3%

# From PubChem BioAssay
